High-throughput results as filed in PubChem BioAssay.
HNF4A DNA FP – change in binding of human HNF4 alpha to DNA; activity change, % at 10 µM; HNF4a-FITC DNA binding, fluorescence polarization, 1 h; P41235; hit rate 0.3% among 360,000; in the data active = activity change above about 30%, passing the limit was not always enough;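 note: controls were the assay level and a saturating level of protein; the project sought stronger binding though the title names inhibitors; some compounds called inactive have numbers as strong as hits; positive values seem to mean higher polarization but the record does not say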
B2AR ag – human beta-2 adrenergic receptor agonism by FAP | Am2.2-beta2AR cells, FAP receptor internalization, flow cytometry; reference of the scale not given here | P07550 | response, % (no concentration beside the values) | hit rate 0.43% among 340,000;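 active = response above a set limit, near 3 SD of response in nonfluorescent compounds, cut at about 42% in these data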;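 note: stock transfer was 100 nL into about 11 µL; a reference agonist was the positive control; negative values mostly stem from fluorescent compounds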
Target sequence (P07550 whole entry, looked up): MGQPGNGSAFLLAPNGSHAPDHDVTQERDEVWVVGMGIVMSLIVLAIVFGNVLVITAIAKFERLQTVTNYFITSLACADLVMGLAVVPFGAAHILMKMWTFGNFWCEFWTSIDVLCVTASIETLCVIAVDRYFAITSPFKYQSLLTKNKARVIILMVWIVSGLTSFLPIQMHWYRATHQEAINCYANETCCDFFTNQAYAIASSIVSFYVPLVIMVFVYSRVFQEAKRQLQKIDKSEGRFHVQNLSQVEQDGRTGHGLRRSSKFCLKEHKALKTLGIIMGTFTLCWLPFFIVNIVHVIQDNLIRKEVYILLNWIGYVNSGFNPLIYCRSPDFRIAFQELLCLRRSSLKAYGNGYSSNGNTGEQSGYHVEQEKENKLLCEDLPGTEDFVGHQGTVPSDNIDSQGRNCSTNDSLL
FGF22 binding – binders of recombinant human FGF22 by thermal shift. calls only at 9.99 µM. AID 651658. SYPRO orange fluorescence; percent of sucrose octasulfate shift, DMSO zero. hit rate 1.5% among 340,000;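 active = melting point raised past a set limit in the mean and every replicate; three in four hits are not shown here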
Target sequence (Q9HCT0 whole entry, looked up): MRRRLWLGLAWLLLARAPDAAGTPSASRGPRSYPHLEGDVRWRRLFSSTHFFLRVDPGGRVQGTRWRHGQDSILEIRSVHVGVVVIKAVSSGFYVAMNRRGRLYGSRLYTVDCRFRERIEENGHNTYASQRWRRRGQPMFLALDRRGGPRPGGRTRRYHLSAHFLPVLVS
Ecoli rRNA inh – inhibits bacterial ribosomal RNA function over humanized ribosomes; GFP signal change (wild-type ribosome), % (test concentration not listed); E. coli WT GFP vs humanized-ribosome RFP mutants, fluorescence, 24 h; stronger effect = lower value; DMSO median 0, no signal -100; hit rate 1.6% among 350,000;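 active = significant combined selectivity score with lowered wild-type GFP, culture density cut under 30%, mutant RFP and density less affected; inactive = any of these conditions unmet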; note: one replicate is shown; some compounds called inactive have numbers as strong as hits
ALR inh – blocks human ALR sulfhydryl oxidase activity; purified ALR, DTT oxidation, H2O2 HRP-luminol luminescence; inhibition, % (no concentration beside the values); hit rate 3.8% among 290,000;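 active = mean and each replicate at 75% or more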;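 note: stock transfer was 7.5 nL into about 7.5 µL; 0% = neutral wells and 100% = wells with inactivated enzyme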
Target sequence (P55789 whole entry, looked up): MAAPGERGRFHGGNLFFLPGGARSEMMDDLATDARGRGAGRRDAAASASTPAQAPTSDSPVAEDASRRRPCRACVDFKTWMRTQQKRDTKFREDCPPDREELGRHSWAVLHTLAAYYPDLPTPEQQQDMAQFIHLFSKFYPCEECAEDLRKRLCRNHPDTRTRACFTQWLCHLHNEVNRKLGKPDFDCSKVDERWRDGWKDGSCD
UCH37 inh – blocks the human deubiquitinase UCH37; hit rate 0.33% among 330,000; inhibition, % (test concentration not listed); Q9Y5K5; purified proteasome/UCH37, Ub-AMC cleavage fluorescence;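 active = mean of two replicates above 20%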;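 note: 0% = compound-free wells with enzyme and 100% = wells lacking proteasome; stock transfer was 100 nL into about 20 µL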
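Material: human UCH37 enzyme supplied as purified proteasome complex / Amount: 0.15 nM proteasome as dispensed / Buffer or medium: pH 7.4 Tris-HCl (50 mM) with ovalbumin, ATP-MgCl2, DTT / Times: preincubation 30 min, reaction 25 min, room temperature / Technique: AMC fluorescence from Ub-AMC cleavage, excitation 355 nm, emission 460 nm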
Ecoli growth – inhibitors of Escherichia coli growth; OD600, 23 h; stronger effect = lower value; AID 1053175; OD600 absorbance (no concentration beside the values); hit rate 0.21% among 330,000;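 active = OD600 absorbance below the run mean of sample wells minus 3.6 SD, in any replicate, cut at about 0.56 in these data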;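 note: stock transfer was 300 nL into about 60 µL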
Ecoli rRNA inh OD600 – second read-out of Ecoli rRNA inh, no call of its own (marks repeat the call); OD600 change, %; measured here: OD600 growth;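 optical density of the mix in the first replicate; 0 = DMSO median and -100 = no signal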
Ecoli rRNA inh RFP – further read-out of Ecoli rRNA inh, marked with its call; RFP signal change, %; measured here: RFP humanized mutant strains;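 first replicate; 0 = DMSO median and -100 = no signal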
* marks the source's active call; other numbers are inactive results; i = inactive; . = no result given; & = joins results of further samples. Not all compounds are listed, so the mix of outcomes need not match the whole.

SMILES	HNF4A DNA FP	B2AR ag	FGF22 binding	Ecoli rRNA inh	Ecoli rRNA inh OD600	Ecoli rRNA inh RFP	ALR inh	UCH37 inh	Ecoli growth
Cc1ccccc1CC(=O)Nc1cccnc1	-1.5	-4	i	2	-1	-0.6	3	2.2	0.65
O=C(CN1C(=O)COc2ccc(Cl)cc21)N1CCCCC1	1.5	7	i	4	7	0.4	2	-0.1	0.66
O=C(OCC1CCNCC1)c1ccc2c(c1)OCO2	3.6	-6	i	10	3	-0.7	-15	-1.7	0.64
CC1(C(=O)NS(=O)(=O)C2CC2)CCCN(C(=O)c2ccccc2OC(F)(F)F)C1 (stereo unspecified)	1.4	.	i	13	13	0.0	.	.	.
CC(=O)OC[C@H]1COc2ccc3ccccc3c2[C@H]1N(C)C(C)=O	-1.1	-3	.	.	.	.	3	3.6	0.69
CC1=Nn2c(nnc2-c2ccco2)SC1	2.7	3	.	.	.	.	0	6.1	0.68
O=C(Cn1cnc(Cl)c1Cl)c1ccc(F)cc1	2.8	-2	i	7	6	0.9	16	6.8	0.65
O=C(O)[C@@H]1CCCN1S(=O)(=O)c1cccc2cccnc12	-4.0	-5	i	6	4	-0.1	0	5.8	.
COc1ccccc1C(=O)NC(CCSC)C(=O)NNC(=O)c1ccccc1O (stereo unspecified)	2.2	2	i	-12	-9	-5.0	8	-18	0.63
COc1ccc2c(c1)C(C)=CC(C)(C)N2S(=O)(=O)c1ccc(NC(C)=O)cc1	0.9	23	i	-9	-14	-1.8	53	.	.
COc1ccc(NC(=O)CCCNC(=O)Cn2cnc3sc(C)c(C)c3c2=O)cc1OC	4.8	-2	i	5	6	-1.2	-5	4.8	0.71
COCCNC(=O)C(c1ccc(O)cc1)N(Cc1ccco1)C(=O)CCC(=O)Nc1ccccn1 (stereo unspecified)	1.0	-9	i	3	4	-1.2	4	1.4	0.67
CCOc1ccc(NS(=O)(=O)c2ccc3c(c2)N(C(C)=O)CC3)cc1	1.5	-3	i	24	9	-0.6	-5	4.6	0.73
CC(=O)N/C(=C/c1ccc([N+](=O)[O-])cc1)C(=O)O	-1.9	-1	i	15	12	0.2	-4	8.4	0.7
COc1ccc(CN2C(=O)Cc3c2nc(N)c2c(N)nc(N4CCOCC4)c(C#N)c32)cc1	5.5	16	i	2	-1	-3.8	-28	-143	0.69
CC(=O)Nc1ccc(S(=O)(=O)NCc2cccnc2)cc1	-5.8	4	.	.	.	.	-4	-0.7	0.65
O=C(COc1ccc([N+](=O)[O-])cc1)NNC(=O)c1cccs1	1.2	13	i	19	16	3.9	-9	4.6	0.72
CC/C(=C\c1ccc(Cl)cc1)c1ccncc1	2.4	-9	i	-62	-80	-22	.	-0.9	0.66
C[C@@H]1CN([C@@H](C)CO)C(=O)CCCn2nncc2CO[C@@H]1CN(C)C(=O)c1ccncc1	1.5	.	i	1&1	9&-1	-1.1&-1.1	.	.	.
Cc1ccc(NC(=O)NCc2cccnc2)cc1C	1.9	-5	i	-2	1	-4.5	-4	0.9	0.6
CC(C)(C)C1CCc2c(sc(NC(=O)c3cccs3)c2C(N)=O)C1 (stereo unspecified)	3.9	1	.	.	.	.	-3	-267	0.73
Cn1cccc/c1=N\c1cccc[n+]1C	-6.3	6	i	21	3	1.0	-6	.	.
O=C(C1CCCN(Cc2ccccc2F)C1)N1CCc2ccccc2C1 (stereo unspecified)	3.1	10	i	4	-4	3.2	-5	.	.
CCC(=O)N1CC2(c3ccccc3)CN(C(=O)CC)CC(c3ccccc3)(C1)C2=O	-1.1	-7	i	8	11	1.9	-4	4.3	0.7
CC(=O)NCCN1C(=O)C2C3c4ccccc4C(c4ccccc43)C2C1=O (stereo unspecified)	-2.8	1	.	7	5	4.1	-8	6.4	0.72
Next part:
SMILES	HNF4A DNA FP	B2AR ag	FGF22 binding	Ecoli rRNA inh	Ecoli rRNA inh OD600	Ecoli rRNA inh RFP	ALR inh	UCH37 inh	Ecoli growth
CCOC(=O)NC1(C(F)(F)F)C(=O)NC(C)=C1C(=O)OC (stereo unspecified)	1.6	3	.	.	.	.	-8	-0.1	0.61
Cc1ncc(CO)c2c1OC(C)(C)OC2	6.6	-1	.	.	.	.	.	1.7	0.66
CN(NC(=O)NN)c1ncc(C(F)(F)F)cc1Cl	-0.3	6	.	.	.	.	-15	-0.9	0.68
OCC1(Cc2ccccc2F)CCCN(Cc2c(F)ccc(F)c2F)C1 (stereo unspecified)	-1.9	3	i	-24	-36	-1.9	0	-0.1	0.64
O=C(O)C(c1ccccc1)C1CCCCC1O (stereo unspecified)	-2.7	-2	i	1	6	-0.1	.	-2.6	0.7
Cc1c(C(=O)c2ccccc2C(=O)O)sc2ccccc12	4.2	-2	i	0	-18	-7.9	3	4.9	0.7
O=C(COc1ccc2c(C(F)(F)F)cc(=O)oc2c1)NCc1cccs1	-0.7	5	i	11	13	4.6	-3	-56	0.69
Nc1[nH]n2c(=O)cc(-c3ccccc3)nc2c1N=Nc1ccccc1	-1.4	-8	.	.	.	.	2	8.9	0.64
CCC(=O)N(CCc1ccc(OC)c(OC)c1)Cc1cc2ccc(C)cc2n2nnnc12	3.9	2	.	20	10	-0.2	-14	4.0	0.7
COc1cc2c(cc1OC)C1(NCC2)C(=O)Nc2ccccc21 (stereo unspecified)	-4.9	4	.	.	.	.	-14	0.8	0.67
C=CCOc1cccc(C(=O)NC(c2ccccc2)C(C)C)c1 (stereo unspecified)	2.4	-11	.	15	11	4.2	-4	1.8	0.71
CCn1c(SC)nnc1C1CCN(S(=O)(=O)c2ccc(OC)cc2)CC1	-3.6	0	.	.	.	.	-10	3.0	0.69
CC(=O)c1ccc(N2CCN(C(=O)CCCn3c(=S)[nH]c4cc5c(cc4c3=O)OCO5)CC2)cc1	1.2	5	.	.	.	.	5	-8.6	0.72
O=c1c(NCCc2ccccc2)c(-c2ccccc2)c1=O	-1.2	4	i	13	18	-0.8	-3	2.7	0.71
Cn1c(SCC(=O)Nc2cccc(S(=O)(=O)NC3=NCCCCC3)c2)nnc1-c1ccccc1	0.4	-1	i	0	4	-0.8	-7	4.5	0.72
CC(NC(=S)Nc1ccccc1)C(c1cccs1)N1CCOCC1 (stereo unspecified)	-2.5	-1	i	-4	-10	-2.7	0	1.4	0.67
CNC(=O)NC(=O)COC(=O)CCCOc1ccc(OC)cc1	0.3	7	.	.	.	.	-2	2.7	0.71
CCN(c1ccccc1)S(=O)(=O)c1ccc(N)c(OC)c1	-0.7	-11	.	.	.	.	.	4.7	0.72
COc1ccc(N2C(=O)CC(Sc3nc(C)c4c(n3)CCCC4)C2=O)cc1 (stereo unspecified)	-0.2	-16	.	.	.	.	-5	6.0	0.7
COc1cc(S(=O)(=O)N(C)C2CCCCC2)c(C)cc1C	4.8	0	i	-44	-53	-16	.	5.5	0.69
COc1ccc(CN(C)C(=O)C2CCN(C(=O)Nc3ccccc3)CC2)cc1OC	0.7	-4	i	3	3	3.5	7	5.7	0.71
Cc1cc(NC(=O)COC(=O)C2CC(=O)N(c3ccc(Cl)cc3)C2)no1 (stereo unspecified)	1.2	5	i	4	-1	-1.7	-1	0.8	0.61
N/C(=N\OC(=O)c1cc(-c2ccccc2)nc2ccccc12)c1ccc(Cl)cc1	-3.4	12	.	.	.	.	-6	-3.5	0.69
COc1cc(C(=O)N2CCN(C(=O)C(Cc3cc(C)ccc3C)NC(C)=O)CC2)cc(OC)c1OC (stereo unspecified)	-0.7	9	.	.	.	.	-5	0.9	0.69
CN(C)Cc1ccccc1CNC(=O)c1cccc(S(=O)(=O)Nc2ccc3c(c2)OCO3)c1	3.5	.	i	-31	-40	-4.5	.	.	.

Results in FGF22 binding, Ecoli rRNA inh OD600 and Ecoli growth, for some of the entries so far:
SMILES	FGF22 binding	Ecoli rRNA inh OD600	Ecoli growth
CNC(=O)NC(=O)COC(=O)CCCOc1ccc(OC)cc1	.	.	0.71
O=C(COc1ccc2c(C(F)(F)F)cc(=O)oc2c1)NCc1cccs1	i	13	0.69
COc1ccc(N2C(=O)CC(Sc3nc(C)c4c(n3)CCCC4)C2=O)cc1 (stereo unspecified)	.	.	0.7
Cc1ncc(CO)c2c1OC(C)(C)OC2	.	.	0.66
O=C(O)C(c1ccccc1)C1CCCCC1O (stereo unspecified)	i	6	0.7

Further compounds:
SMILES	HNF4A DNA FP	B2AR ag	FGF22 binding	Ecoli rRNA inh	Ecoli rRNA inh OD600	Ecoli rRNA inh RFP	ALR inh	UCH37 inh	Ecoli growth
O=C(CSc1nnc(NC(=O)C2CC2)s1)NCc1ccco1	1.3	-5	i	11	2	-1.0	-6	1.5	0.59
CCn1c(SCC(=O)c2cc(OC)ccc2OC)nnc1-c1ccncc1	-0.3	0	.	0	1	-7.1	1	1.4	0.66
COc1cccc(CCNC(=O)CC2C(=O)NCCN2CC(C)(C)C)c1 (stereo unspecified)	-0.6	1	i	14	7	0.8	-7	-3.1	0.66
CCOc1ccc(S(=O)(=O)N2CCN(Cc3ccc4c(c3)OCO4)CC2)cc1Cl	-1.6	-6	i	-3	-7	2.3	-5	1.0	0.68
O=C(Oc1ccccc1Cl)c1ccc(-n2cncn2)nc1	3.1	1	.	.	.	.	3	5.2	0.71
O=C(Cn1nc(-c2cccc(Cl)c2)ccc1=O)Nc1ccc(C(=O)NC2CC2)cc1	4.2	-9	i	-17	-13	-0.7	-17	1.5	0.67
COc1cccc2cc(C(=O)NCc3ccccc3)c(=N)oc12	0.0	8	i	19	17	2.2	-15	0.7	0.69
Cc1ccc(N(CC(=O)NC(C)(C)C)C(=O)CNC(=O)c2cccs2)cc1	-2.2	-4	i	11	14	3.3	4	2.1	0.7
OCCNC(=S)NCc1ccccc1	1.5	0	i	16	4	2.6	-3	1.2	0.68
CCn1cnc2c1c(=O)n(CC(=O)NCC(F)(F)F)c(=O)n2Cc1ccccc1	2.8	8	i	15	5	-10	5	-0.9	0.7
Cc1noc(C)c1-c1nc(CSc2ccccc2)no1	-2.8	-3	i	-27	-24	-5.1	-12	5.9	0.69
COc1cccc(OC)c1-c1nn2c(-c3ccccc3Cl)nnc2s1	3.5	2	.	.	.	.	-2	-4.2	0.68
Cc1cc(C(=O)NCCCOC(C)C)c2ccccc2n1	-3.9	6	.	.	.	.	-4	-0.6	0.69
OCC1(Cc2ccccc2)CCN(CCCC2CCCC2)CC1	-1.3	-6	i	1	4	12	-3	2.5	0.67
Cc1ccc2nc(NCc3ccccc3)c(C=NCc3ccccc3)c(=O)n2c1	0.7	19	i	9	11	-0.9	0	-13	0.69
Cc1ccccc1C(=O)Nc1ccnc(-c2ccncc2)n1	-3.7	3	i	7	11	4.0	-7	4.1	0.69
CCOc1ccc(-c2nnn(CC(=O)N3CCN(c4ccc(OC)cc4)CC3)n2)cc1OCC	0.4	1	.	.	.	.	-12	0.5	0.7
O=C(COC(=O)c1ccc([N+](=O)[O-])s1)NNC(=O)c1ccccc1	-6.5	4	.	.	.	.	-87	80*	0.62
COc1ccc(C(=O)NCc2csc(C)n2)cc1OC1CCN(C(C)=O)CC1	-2.4	-2	i	7	-1	0.7	-12	-1.3	0.67
Cn1c(=O)c2c(SCC(=O)NCCc3ccccc3)nc(C3CC3)nc2n(C)c1=O	.	.	.	.	.	.	-4	3.3	0.72
